2A StopGo = FMDV 2A StopGo reporter, luciferase signal. human cells with a luciferase reporter of 2A StopGo recoding; control for the full effect not named in the record. Potency, µM (series often up to 57.9 µM), for inactives: top-dose signal change, negative = less light. actives 1.2% (n = 410,000). AID 1159524; active = well fitted falling curve with a large enough effect; inconclusive = small, poorly fitted or top-dose-only effect; inactive = no such curve, though single readings can be large or run the other way; tested in HEK293T cells; also: % is scaled to controls: 0 for no effect and ±100 for the full control effect; nearly all actives have a fitted effect of over 45% in size; luciferase light after 4 h
RE007 growth inh = less growth of the S. pombe RE007 Vpr strain | Potency, µM (doses to about 92.2 µM), for inactives: top-dose activity change, negative = less growth | AID 651644 | actives 0.21% (n = 360,000) | S. pombe RE007 Vpr strain, BacTiter-Glo ATP luminescence, 24 h; control for the full effect not named in the record; active = well fitted falling curve with a large enough effect; inconclusive = small, poorly fitted or top-dose-only effect; inactive = no such curve, though single readings can be large or run the other way;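 also: % is scaled to controls: 0 for no effect and ±100 for the full control effect; nearly all actives have a fitted effect of over 50% in size; the assay follows cell death caused by Vpr and the record does not say whether a fall means rescue or toxicity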
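Fission yeast RE007 carrying one integrated HIV-1 vpr copy, seeded at OD 0.01 in PMG+AL medium with 23 nL pinned compound. Grown 24 h at 30 degrees; viability read by BacTiter-Glo luminescence after 5 min.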
Cruzain inh Det = inhibitors of Trypanosoma cruzi cruzain with detergent | P25779 | actives 0.43% (n = 200,000) | AID 1478 | purified cruzain, Z-FR-AMC fluorescence, 0.01% Triton | Potency, µM, for the others: max response, negative = inhibition, actives largely listed as inhibitors; active = well fitted curve in the direction sought with a large enough effect; inconclusive = small, poorly fitted or top-dose-only effect, or another doubt; inactive = no such curve, though single readings can be large; an effect the other way counts as inactive or inconclusive;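 also: plate controls were neutral wells for no effect and buffer without enzyme for full effect; nearly all actives have a fitted effect of over 40% in size; top concentration of the series not given in the record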
Target sequence (P25779 123-467 limits assumed): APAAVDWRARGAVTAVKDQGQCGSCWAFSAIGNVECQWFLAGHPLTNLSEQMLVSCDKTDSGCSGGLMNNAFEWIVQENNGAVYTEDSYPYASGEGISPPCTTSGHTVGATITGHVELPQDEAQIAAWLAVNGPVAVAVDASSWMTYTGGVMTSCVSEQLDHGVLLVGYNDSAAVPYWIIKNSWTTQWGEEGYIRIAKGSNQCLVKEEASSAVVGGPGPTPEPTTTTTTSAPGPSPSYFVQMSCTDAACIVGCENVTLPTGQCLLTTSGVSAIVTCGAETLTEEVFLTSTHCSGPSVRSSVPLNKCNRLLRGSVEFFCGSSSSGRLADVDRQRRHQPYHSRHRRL
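Z-FR-AMC hydrolysis (2 uM substrate) by cruzain (1.5 nM) monitored kinetically at ex 360/em 450 nm after 15 min room-temperature compound exposure; 0.01% Triton X-100, pH 5.5, 5 mM DTT.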
SARS PLP yeast = SARS-CoV PLP inhibition in yeast; S. cerevisiae expressing SARS-CoV PLpro, growth rescue; control for the full effect not named in the record; Potency, µM (highest dose often 32.9 µM), inactives show top-dose activity, positive = growth rescue; actives 0.19% (n = 330,000); AID 485353; also: 0% is about no effect; nearly all actives have a fitted effect of over 55% in size; growth read by luminescence after 48 h
LASV entry inh = blocks Lassa virus binding to or entry into cells; Lassa virus pseudotype entry inhibition, cell reporter; control for the full effect not named in the record; Potency, µM (top dose mostly 37.9 µM), for inactives: at the highest dose activity change, negative = inhibition, usual class: inhibitors; actives 1.2% (n = 300,000); AID 540256; active means well fitted inhibition curve with a large enough effect; inconclusive means small, poorly fitted or top-dose-only effect, or effect the other way; inactive means flat fitted curve, though single readings scatter; tested in HEK293 cells; also: % is scaled to controls: 0 for no effect and ±100 for the full control effect; nearly all actives have a fitted effect of over 50% in size; luciferase read-out
NS1 inh = inhibitors of influenza NS1 protein function. S. cerevisiae slowed by influenza A NS1, growth recovery by OD600. Potency, µM (doses to about 46.1 µM), without a hit: at the highest dose activity, positive = more growth. actives 0.4% (n = 270,000); also: actives are rising curves; nearly all actives have a fitted effect of over 50% in size
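Read-out: OD600 growth recovery of NS1-expressing budding yeast. Cells grown overnight at 30C in -URA glucose medium, washed, resuspended and diluted 1:100 in 2% galactose assay medium, pH 6.0. Same strain lacking NS1 served as positive control.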
MARV entry inh = inhibitors of Marburg virus binding or cell entry | Marburg virus pseudotyped entry inhibition, cell reporter; control for the full effect not named in the record; about a third of the inactives were read at about 46 µM | Potency, µM (highest dose often 37.8 µM), for the others: top-dose activity change, negative = inhibition, actives largely listed as inhibitors | actives 1.8% (n = 300,000); active = well fitted inhibition curve with a large enough effect; inconclusive = small, poorly fitted or top-dose-only effect, or effect the other way; inactive = flat fitted curve, though single readings scatter; tested in HEK293 cells; about a fifth of its hits are not listed in these tables; also: % is scaled to controls: 0 for no effect and ±100 for the full control effect; luciferase read-out
Cruzain inh noDet = blocks cruzain activity in detergent-free assay. P25779. purified cruzain, Z-FR-AMC fluorescence, no detergent. Potency, µM, for inactives: max response, negative = inhibition, hits mostly inhibitors. actives 2.3% (n = 200,000). AID 1476; active = well fitted curve in the direction sought with a large enough effect; inconclusive = small, poorly fitted or top-dose-only effect, or another doubt; inactive = no such curve, though single readings can be large; an effect the other way counts as inactive or inconclusive;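 also: plate controls were enzyme without inhibitor for no effect and buffer without enzyme for full effect; nearly all actives have a fitted effect of over 40% in size; top concentration of the series not given in the record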
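Purified cruzain at 1.5 nM, pre-incubated 15 min with compound at room temperature in 100 mM sodium acetate pH 5.5, 5 mM DTT, 0.00005% Triton X-100. Reaction started with 2 uM Z-FR-AMC; AMC fluorescence increase over 60 s gives rate.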
The depositor's hits bear a star; ? = inconclusive; . = not tested or not shown; & = joins results of further samples; [ ] = another dose, or the depositor's remark. Unless noted, calls follow the shape of the dose curve; as a rule, active means well fitted rising curve with a large enough effect; inconclusive means small, poorly fitted or top-dose-only effect; inactive means no such curve, though single readings can be large or run the other way. Potency is read from the fitted curve at half-maximal effect.

SMILES | 2A StopGo | RE007 growth inh | Cruzain inh Det | SARS PLP yeast | LASV entry inh | NS1 inh | MARV entry inh | Cruzain inh noDet
O=C(N/C(=C/C=C\c1ccccc1)C(=O)N1CCOCC1)c1ccc(Br)cc1 | 55.5%[activator] | -8.9% | . | 0.7% | -25.8%[46.1 µM] | 0.1% | ? | .
O=C(c1nn2c(C(F)(F)F)cc(-c3ccccc3)nc2c1Cl)N1CCN2CCCC2C1 (stereo unspecified) | -2.4% | 2.5% | . | -4.5% | -17.3%[46.1 µM] | 0.4% | ? | .
COc1ccc(C2SCC(=O)N2CC23CC4CC(CC(C4)C2)C3)cc1 (stereo unspecified) | -28.5% | 8.7% | -3.9% | -22.8% | ? | -18.1% | ? | 1.2%
COc1ccc(N(C(=O)Cn2nnc(-c3ccc(F)cc3)n2)C(C)C(=O)NC2CCCC2)cc1 (stereo unspecified) | -10.4% | -0.9% | . | 1.0% | 11.6%[46.1 µM] | 1.3% | ? | .
Cc1ccccc1NC(=O)Cn1nnc2sc3c(c2c1=O)CC(C)(C)OC3 | -9.2% | 1.4% | . | -0.3% | 1.6%[46.1 µM] | 0.8% | 3.0%[46.1 µM] | .
C=C(C)c1cccc(C(C)(C)NC(=O)N2CCN(CC(N)=O)CC2)c1 | -23.6% | 18.0% | -6.1% | 5.3% | -0.1% | -16.2% | 4.2%[46.1 µM] | 12.7%
COc1ccc(N2CC(NC(=O)NCCC(C)C)CC2=O)cc1 (stereo unspecified) | -12.7% | -4.2% | -1.5% | -0.3% | 8.2% | -0.8% | 11.4% | -5.4%
CCN(c1ccccc1)c1nnc(NC(=O)Nc2ccc(Br)cc2)s1 | 22.4% | . | -3.1% | . | 2.6%[46.1 µM] | . | -25.5%[46.1 µM] | 2.1%
Cc1cc(C)c2nc(NC3=NCN(CCN4CCOCC4)CN3)nc(C)c2c1 | . | . | -6.0% | 2.7% | . | -9.8% | 1.7% | -7.3%
COc1ccc(/C=N/NC(=O)CN2CCSCC2)c(OC)c1 | -1.3% | -10.4% | -3.4% | 9.2% | 3.5% | 3.0% | 12.5% | 9.8%
COc1ccc(/C=N/NC(=O)Cn2nnc3ccccc32)cc1OC | 9.9% | 5.1% | -1.2% | -2.7% | 8.8% | 4.5% | -0.1% | -4.9%
COc1ccc(OCC(O)CN2CCN(CC(O)COc3ccc(OC)cc3)CC2)cc1 (stereo unspecified) | -4.1% | -7.7% | . | -4.3% | . | -9.7% | . | .
O=C(CNS(=O)(=O)c1cccs1)N1CCc2ccccc2C1 | 43.8%[activator] | 15.1% | 0.6% | -6.9% | 2.7% | -4.6% | ? | 0.5%
CCn1c2ccccc2c2nnc(SCC(=O)Nc3ccc4c(c3)OCO4)nc21 | 37.1%[activator] | 8.5% | -5.8% | -0.9% | -1.7% | -1.7% | ? | -9.8%
CCOc1ccc(/C=C(\C)C(=O)c2c(C)cc(C)[nH]c2=O)cc1 | 19.5% | 1.5% | . | -3.7% | . | 13.3% | . | .
CC(=O)Nc1ccc(Nc2cc(C)nc3ccccc23)cc1 | -12.5% | 6.5% | . | . | -17.4%[46.1 µM] | . | ? | .
O=S(CCc1ccncc1)Cc1ccccc1 (stereo unspecified) | -2.4% | -15.6% | 6.6% | 3.5% | 22.5% | 2.4%[9.22 µM] | 3.1%&3.1% | -1.6%
CC(NC(=S)NCCN1CCOCC1)C12CC3CC(CC(C3)C1)C2 (stereo unspecified) | 1.2% | 2.3% | . | 0.5% | ? | 1.5% | ? | .
COc1cccc(NC(=O)CN(C)C(C)C(=O)Nc2cc([N+](=O)[O-])ccc2Cl)c1 (stereo unspecified) | -19.7% | -11.4% | . | 1.4% | ? | . | 0.3%[46.1 µM] | .
Cc1ccc(OCC(=O)N/N=C/c2ccncc2)cc1C | 10.4% | -1.9% | . | -1.7% | -2.3% | -7.3% | ? | .
C=CC(COCc1ccccc1)N(Cc1ccc(OC)cc1)S(=O)(=O)c1ccccc1Br (stereo unspecified) | -20.1% | 0.9% | . | -0.9% | . | 7.6% | . | .
CCN1C2=NCCCN2c2ccccc21 | 4.9% | 0.2% | 0.1% | 2.2% | -2.3% | -5.5% | -1.5% | 2.9%
O=P(C(=Nc1ccc(Cl)cc1)N1CCOCC1)(N1CCOCC1)N1CCOCC1 | -22.6% | 4.2% | 0.6% | 1.0% | 2.3% | 3.2% | -3.2%[46.1 µM] | 26.6%
O=C(COC(=O)c1ccccn1)Nc1ccc(S(=O)(=O)N2CCOCC2)cc1 | -3.6% | -9.3% | 2.7% | 0.5% | 7.7% | 16.3% | -8.7% | 3.9%
CCOc1ccc(C2C(=O)N(C3CCCCCC3)CC(=O)N2Cc2ccccc2)cc1OC (stereo unspecified) | -19.4% | . | -0.9% | . | -14.8%[46.1 µM] | . | . | 13.7%

Another view of some results above.
molecule	2A StopGo	RE007 growth inh	Cruzain inh Det	SARS PLP yeast	LASV entry inh	NS1 inh	MARV entry inh	Cruzain inh noDet
CCOc1ccc(/C=C(\C)C(=O)c2c(C)cc(C)[nH]c2=O)cc1	19.5%	1.5%	.	-3.7%	.	13.3%	.	.
COc1ccc(OCC(O)CN2CCN(CC(O)COc3ccc(OC)cc3)CC2)cc1 (stereo unspecified)	-4.1%	-7.7%	.	-4.3%	.	-9.7%	.	.

The list continues:
SMILES | 2A StopGo | RE007 growth inh | Cruzain inh Det | SARS PLP yeast | LASV entry inh | NS1 inh | MARV entry inh | Cruzain inh noDet
CCOc1ccccc1NC(=O)N1CCc2c(sc3c2CCCC3)C1c1ccccc1 (stereo unspecified) | -15.3% | . | 0.7% | . | 8.5%[46.1 µM] | . | . | -21.0%
Cc1ccc(-c2ccc(=O)n(CC(=O)NCCN(C)C)n2)cc1 | . | -2.0% | -0.3% | 1.9% | 5.1% | -1.3% | 8.2% | -12.7%
COc1ccc(CNS(=O)(=O)c2cnc(N)nc2)cc1 | -1.0% | . | -1.4% | . | -3.3%[46.1 µM] | . | . | -3.7%
COc1cc(/C=N/n2c(C)nc3ccccc3c2=O)cc(OC)c1O | -8.9% | 1.4% | . | 0.1% | . | 6.1% | . | .
O=C(NCCCNC(=O)c1ccccn1)c1ccc(F)cc1 | 39.3%[activator] | -5.0% | . | -0.5% | 9.6%[46.1 µM] | -0.6% | -23.6%[46.1 µM] | .
O=C(NCCO)c1cccc2c1C(=O)c1ccccc1-2 | -11.6% | -21.8% | -4.3% | -3.6% | 3.7% | 14.3% | 7.2%&7.2% | -5.0%
Cc1ccccc1CN(c1ccc(C(=O)NCCC2=CCCCC2)cc1)S(C)(=O)=O | -25.0% | 0.6% | -0.3% | -0.9% | 16.4µM* | 10.3% | ? | 29.6%
CCN1C/C(=N\S(=O)(=O)/N=C2\CN(CC)C(=O)N2CC)N(CC)C1=O | -22.4% | 11.5% | . | 0.0% | 11.6%[46.1 µM] | -0.1% | ? | .
O=C(O)c1cccc(CSc2nnc(-c3ccc(Cl)cc3)o2)c1 | 4.0% | -11.0% | . | 3.6% | . | -37.4% | . | .
Cc1ccccc1NC(=O)Cc1nc(CCl)cs1 | -15.3% | 0.0% | 1.0% | 9.8% | -1.2% | 4.7% | -3.3% | -5.3%
CCCCOC(=O)Nc1ccc(C(=O)OC)cc1 | 28.5% | 17.6% | -4.4% | -5.7% | -16.9% | -60.1% | ? | -2.3%
COc1cc(C(=O)NCc2ccc3c(c2)OCO3)ccc1OCc1c(C)noc1C | 9.2% | 19.6% | 10.2% | -9.3% | -21.5% | ? | -20.6% | 4.0%
CC(C)(C)OC(=O)NCC(=O)N1CCC(C(=O)O)CC1 | -19.9% | 5.2% | 7.3% | -3.4% | -4.4% | 7.6% | ? | 14.6%
CCN(CCCNC(=O)CC1Oc2ccc(C)cc2NC1=O)Cc1ccccc1 (stereo unspecified) | -8.2% | 13.5% | -7.4% | 3.8% | -0.3% | ? | 5.1%&5.1% | -8.0%
CCOC(=O)c1ccc(CNCc2ccc(C)cc2)cc1 | -12.6% | 3.1% | -1.0% | 9.5% | 6.3% | 2.3% | 1.1% | -1.2%
Cc1ccc(NC(=O)N2CCc3cc(S(=O)(=O)N4CCC(C)CC4)ccc32)cc1F | 3.8% | . | 5.1% | . | . | . | 5.4%[46.1 µM] | -8.5%
Cn1cccc1/C=N/N1CCN(Cc2ccccc2)CC1 | 21.3% | -2.8% | . | -0.7% | . | 2.3% | . | .
CC(C)Cn1cnc2c(SCc3ccccc3F)nc(N)nc21 | -9.3% | 16.0% | . | . | ? | . | ? | .
Cc1cc(=O)c2ccc(Cl)cc2[nH]1 | -13.8% | 7.6% | -2.6%&0.1% | 6.2% | -12.7% | 14.6% | 2.1% | -4.9%&9.0%
CCOc1ccc(N2CC(C(=O)Nc3nnc(SCCOC)s3)CC2=O)cc1 (stereo unspecified) | 9.2% | 6.0% | . | 0.6% | -21.9% | -38.7% | 12.8% | .
COc1ccccc1N1CCN(C2CCCCC2NS(=O)(=O)c2ccc(Cl)cc2)CC1 (stereo unspecified) | ? | -17.7% | . | -5.3% | . | -6.3% | . | .
COC(=O)c1sccc1NC(=O)c1cc(-c2ccc(C)cc2)nc2ccccc12 | -7.0% | 5.6% | -4.1% | -15.3% | -2.2% | 0.9% | 18.5% | ?
Cc1cc(CN2CCCC(CNC(=O)c3ccc(F)cc3)C2)cc(C)c1O (stereo unspecified) | -8.3% | 9.6% | . | 0.7% | . | 2.3% | . | .
Cc1onc(-c2ccccc2Cl)c1C(=O)NCc1ccc(N2CCCC2=O)cc1 | -15.3% | -6.1% | 5.9% | -5.3% | -1.1% | -4.2% | 0.4% | 7.0%
CCn1ccnc1CNCc1ccc(OCC(O)CN(C)Cc2ccccc2)cc1 (stereo unspecified) | -5.9% | 20.4% | . | -1.5% | . | -5.5% | . | .
COC(=O)Cn1c(C)nc2c(sc3nc(C)cc(C)c32)c1=O | 12.4% | -27.6% | -5.2% | -0.5% | 5.0% | 4.9% | ? | 9.3%
COc1ccc2cc3c(N)nn(C(=O)Cc4ccccc4OC)c3nc2c1 | -9.2% | -4.5% | 0.9% | 5.8% | . | -29.0% | . | ?

Screening data as filed in PubChem BioAssay.
